# GIRK2 activ = opens human GIRK2 potassium channels. AID 1259325. P48051. HEK293-GIRK2 thallium flux, Thallos fluorescence. calls only for hits at 25 µM. 63,000 compounds, 0.05% hits;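 active means among the strongest 0.2% of first-round signals and kept after retests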;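 further: first round at about 10 µM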
# Target sequence (P48051 whole entry, looked up): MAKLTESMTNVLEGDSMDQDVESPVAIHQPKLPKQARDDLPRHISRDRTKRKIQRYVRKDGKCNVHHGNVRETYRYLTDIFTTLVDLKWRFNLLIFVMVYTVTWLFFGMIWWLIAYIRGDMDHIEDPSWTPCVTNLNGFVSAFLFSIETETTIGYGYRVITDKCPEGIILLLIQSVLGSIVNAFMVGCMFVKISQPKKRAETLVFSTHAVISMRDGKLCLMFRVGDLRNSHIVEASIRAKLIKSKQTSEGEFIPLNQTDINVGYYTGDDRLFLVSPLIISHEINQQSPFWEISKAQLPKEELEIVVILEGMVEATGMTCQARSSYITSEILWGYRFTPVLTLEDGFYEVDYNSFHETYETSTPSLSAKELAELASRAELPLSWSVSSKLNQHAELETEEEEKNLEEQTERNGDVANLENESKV
# Calls only; i = inactive. A portion of the library; rates above refer to the full screens.
SMILES,GIRK2 activ
CC(Oc1ccccc1)C(=O)N1CCN(Cc2nc3ccccc3[nH]2)CC1 (configuration not stated),i
Cn1ccnc1SCC1CCN(C(=O)c2ccc(Br)o2)CC1,i
Cn1c(-c2ccccn2)nn(CCNC(=O)CSC2CCCC2)c1=O,i
O=C(Cc1noc2ccccc12)NCCOc1cccc2cccnc12,i
C=CCNC(=O)N1CCN(CC(=O)c2ccco2)CC1,i
O=S1(=O)c2ccccc2C(c2ccccc2)=NN1Cc1ccccc1F,i
CCOC(=O)Cn1c(=O)c2c(nc3n(-c4ccc(C)cc4C)c(C)c(C)n23)n(C)c1=O,i
COc1ccc(-n2cc(C(=O)OCC(=O)OC(C)C)c3ccccc3c2=O)cc1,i
CCCCNC(=O)c1c(C)c2c(=O)n(CC(=O)Nc3ccc4c(c3)OCCO4)ncn2c1C,i
Cc1cc(OCC(=O)Nc2cc(N3CCOCC3)ncn2)cc(C)c1Cl,i
CCCN1C(=O)CCc2cc(NC(=O)c3ccccc3OC)ccc21,i
COc1cccc(S(=O)(=O)NCc2ccc(C(=O)Nc3ccc(Br)cc3F)cc2)c1,i
O=C(O)CC1=C/C(=C\c2cccc3cccnc23)c2ccc(F)cc21,i
COC(=O)c1ccc(NC(=O)CSc2nc3c(sc(=S)n3-c3ccccc3)c(=O)[nH]2)cc1,i
COc1ccc(N2CCN(S(=O)(=O)c3cn(C)c(=O)n(C)c3=O)CC2)cc1,i
CC(=O)Nc1ccc(Cn2cnc(C(=O)Nc3cc(Cl)ccc3C)c2)cc1,i
O=C1NC2(CCN(C(=O)c3ccc4c(c3)OCO4)CC2)Nc2c(Cl)cccc21,i
COc1cccc(-c2c(NC(=O)c3cccc([N+](=O)[O-])c3)oc3ccccc3c2=O)c1,i
CCOc1ccc(-c2cc(=O)n(CCCC(=O)Nc3ccc(-n4cnnn4)cc3)cn2)cc1,i
CC(=O)Nc1c2c(nn1CC(=O)NCc1ccco1)CSC2,i
COc1ccc(NC(=O)Nc2cnc(-n3ccnc3C)nc2)c(C)c1,i
Cn1ccnc1SCC1CCN(C(=O)C(C)(C)Oc2ccc(Cl)cc2)CC1,i
CNC(=O)CN1CCN(Cc2nc3ccc(OC)cc3[nH]2)CC1,i
CC(=O)c1cccc(NC(=O)COc2cc(C)nc(-c3ccc(C)cc3)n2)c1,i
O=C(Cn1cccc1)Nc1cc(N2CCN(Cc3ccccc3)CC2)ncn1,i
O=C(CCc1ccccc1)NCc1n[nH]c(=O)c2ccccc12,i
Cc1ccc2nc(NC(=O)CN3CCN(CC(=O)c4ccco4)CC3)sc2c1,i
COc1ccc(CC(=O)Nc2ccc(C)c(N3CCCC3=O)c2)cc1,i
COc1ccc(OCc2noc(CNC(=O)c3cc(-c4ccc(F)cc4)n[nH]3)n2)cc1,i
CCOc1ccc(S(=O)(=O)NCc2ccc(C(O)c3cccs3)s2)cc1F (configuration not stated),i
COc1ccc(CCNC(=O)CC2CCCCN2S(=O)(=O)c2ccccc2)cc1 (configuration not stated),i
COc1ccc(-n2c(C)cn3c4c(=O)n(CCN5CCOCC5)c(=O)n(C)c4nc23)c(OC)c1,i
CN(C)S(=O)(=O)c1ccc(C(=O)N2CCC(CSC3=NCCS3)CC2)cc1,i
O=S(=O)(NCCS(=O)(=O)N1CCc2ccccc21)c1ccc(OC(F)(F)F)cc1,i
Cc1ccc(N2C(=O)N(c3cccc(C)c3C)C3CS(=O)(=O)CC32)cc1 (configuration not stated),i
CCOc1cccc2cc(C(=O)Nc3ccc(Br)cc3C)c(=O)oc12,i
CSc1ccc(-c2noc(CSc3nc4[nH]ncc4c(=O)n3-c3ccc(F)c(F)c3)n2)cc1,i
COC(=O)c1sc2cccc(F)c2c1S(=O)(=O)N1CCC(C(N)=O)(N2CCCCC2)CC1,i
O=C(Cc1cccs1)Nc1cc(C2CC2)nn1-c1nc(-c2ccccc2)cc(=O)[nH]1,i
COc1ccc(NC(=O)C2COCC(=O)N2Cc2cccs2)cc1Cl (configuration not stated),i
COc1cc(-n2c(=O)c3ccccc3n(Cc3cccc(F)c3)c2=O)cc(OC)c1OC,i
COc1ccc(-c2ccc(C(=O)Nc3ccc(F)cc3)o2)c([N+](=O)[O-])c1,i
C#CCOCC1CCN(C(=O)CCCc2ccccc2)CC1,i
COc1ccccc1C(O)Cn1cc(C(=O)Nc2ccccc2SC)nn1 (configuration not stated),i
CN(C)C(CNC(=O)C1CCN(S(C)(=O)=O)CC1)c1cn(C)c2ccccc12 (configuration not stated),i
COc1cccc2cc(C(=O)Nc3nc4c(s3)CN(S(=O)(=O)C3CC3)CC4)oc12,i
COCC(=O)N1CCCC(c2nnc(-c3ccccc3F)s2)C1 (configuration not stated),i
CC(C)Sc1ccc(CC(=O)NCC2(CO)CC2)cc1,i
Cc1cc(N2C(=O)c3oc4cc(C)c(Cl)cc4c(=O)c3C2c2cccnc2)no1 (configuration not stated),i
O=C(C(c1ccccc1)c1ccccc1)N(CCc1cccs1)Cc1ccco1,i
CC(=O)OC[C@@]12C(=O)C[C@@H](C)[C@]3(C[C@@H](c4ccoc4)OC3=O)[C@H]1CC[C@H](OC(C)=O)[C@]21CO1,i
COc1ccccc1N1CC(C)Cn2c1nc1c2c(=O)n(CC(C)C)c(=O)n1C (configuration not stated),i
N#Cc1nc(-c2ccc(COc3ccccc3)o2)oc1NCc1cccnc1,i
COC(=O)c1ccccc1NC(=O)C1(c2cccs2)CCCC1,i
CCC(C)n1c(C)c(C)n2c3c(=O)n(Cc4ccc(Cl)cc4)c(=O)n(C)c3nc12 (configuration not stated),i
CC(C)Sc1ccc(CC(=O)N2CCc3nc(NC(=O)c4ccco4)sc3C2)cc1,i
COC(C(=O)Nc1ccc(Cl)cc1-c1nc2ccccc2[nH]c1=O)c1ccccc1 (configuration not stated),i
O=C1/C(=C/c2ccc(Cl)cc2Cl)Oc2cc(O)ccc21,i
O=S(=O)(NCCC(O)c1ccc2c(c1)OCO2)c1ccc(OC(F)(F)F)cc1 (configuration not stated),i
CC1Nc2ncnn2C(c2ccccc2)C1C(=O)Nc1ccccc1 (configuration not stated),i
# New compounds follow
SMILES,GIRK2 activ
CC(=O)c1ccc(NC(=O)Cn2nc3c(Sc4ccc(C)cc4C)nccn3c2=O)cc1,i
O=C(Nc1nc(C(=O)Nc2ccccc2Cl)co1)c1cnccn1,i
CCC(C)n1c(C)cn2c3c(=O)n(CC(C)C)c(=O)n(C)c3nc12 (configuration not stated),i
COCCNC(=O)c1c(N)n(/N=C\c2cccc(OC)c2OC)c2nc3ccccc3nc12,i
O=C(c1sc2ncccc2c1-n1cccc1)N1CCSCC1,i
O=C(NCC#CCOc1cccc(C(F)(F)F)c1)c1ccoc1,i
N#C/C(=C\c1c(F)c(F)c(F)c(F)c1F)c1nc2ccccc2o1,i
COc1ccc(C)c2sc(=NC(=O)CS(=O)(=O)Cc3ccccc3)n(C)c12,i
CC1=C(C(=O)Nc2ccc(C)c(C)c2)C(c2cccc([N+](=O)[O-])c2)NC(=O)N1 (configuration not stated),i
Cc1cc(C)cc(NC(=O)c2nnn(Cc3nc(-c4cccc(Cl)c4)oc3C)c2N)c1,i
O=C1CCCN1c1ccc(CSc2ccc(-c3ccccc3Cl)nn2)cc1,i
Cc1ccccc1OCC(=O)NCCC(O)C1CC1 (configuration not stated),i
CCOc1ccc(OCC)c(S(=O)(=O)NCCCn2ncccc2=O)c1,i
O=C(NCc1ccc(F)c(Cl)c1)c1nnn(-c2ccccc2)c1-c1ccccn1,i
COc1ccc(NC(=O)CSc2nnc3scc(-c4ccccc4)n23)cc1,i
Cc1cc(C(F)(F)F)nc(CCNC(=O)c2cnc3ccccc3n2)n1,i
O=C(NCCc1ccoc1)C(=O)Nc1ccc(OC(F)(F)F)cc1,i
COc1ccc(NC(=O)Cn2nc3c(Oc4ccccc4)nccn3c2=O)c(OC)c1,i
C[N+]1(C)CCCC(OC(=O)C(O)(c2ccccc2)c2ccccc2)C1 (configuration not stated),i
COc1ccccc1OCC#CCNC(=O)CSCc1ccccc1,i
Cc1cccc(-n2ncc3c(=O)n(CC(=O)N4CCN(c5ccccc5)CC4)cnc32)c1C,i
CN(Cc1ccccc1)C(=O)C(=O)c1c[nH]c2ccccc12,i
CC(C)OCCCNc1nc2c(c(=O)[nH]c(=O)n2C)n1CC(O)COc1ccccc1 (configuration not stated),i
COc1ccc(CCC(=O)N2CCN(CCn3cccn3)CC2)cc1,i
O=C(Cc1ccc(F)cc1)NC1CCN(C(=O)c2cn(-c3ccc(F)cc3)nn2)CC1,i
COc1ccccc1-n1c(-c2ccccc2)cn2c3c(=O)n(CC(N)=O)c(=O)n(C)c3nc12,i
Cc1nc(C)c(C(=O)N2CCCC(c3nnc(-c4ccccc4F)s3)C2)s1 (configuration not stated),i
Cc1nn(C(C)(C)C)c(OC(=O)c2cccc(F)c2)c1S(=O)(=O)c1ccccc1,i
COc1cccc(-c2cc(C(=O)N3CCC(NC(=O)c4cccc(Cl)c4)CC3)[nH]n2)c1,i
Cc1ccc(N2CCCS2(=O)=O)cc1NC(=O)NC12CC3CC(CC(C3)C1)C2,i
COCCCn1c(-c2ccc(C(C)(C)C)cc2)nc2oc3cc(OC)ccc3c(=O)c2c1=O,i
COc1ccc(C)cc1NC(=O)CSc1ncc(S(=O)(=O)c2ccc(C)cc2C)c(=O)[nH]1,i
O=C(NCC1CCN(c2cnccn2)CC1)c1ccc(F)c(F)c1,i
Cc1ccc(-n2nnc(C(=O)NCc3cccc(C(F)(F)F)c3)c2-c2cccnc2)cc1,i
CC(=O)c1cccc(NC(=O)CSc2nccn2-c2cccc(C(=O)Nc3ccccc3)c2)c1,i
CC(c1ccccc1)n1cnc2c(cnc3nc4ccccc4n32)c1=O (configuration not stated),i
CC(=O)Oc1ccc2c(C)c(-c3ccc(Br)cc3)c(=O)oc2c1,i
Cc1ncn(-c2cc(NCCNC(=O)COc3ccc(-n4cccn4)nn3)ncn2)c1C,i
Cc1cc(C)c(N2C(=O)CCC2=O)c(C)c1,i
CCS(=O)(=O)N1CCN(Cc2c(C)noc2C)CC1,i
COc1cccc(CSc2nc(CC(=O)Nc3ccc(F)c(Cl)c3)cc(=O)[nH]2)c1,i
CCOc1ccc(-c2noc(CSc3nc(-c4ccccc4)cc(=O)[nH]3)n2)cc1OC,i
Cn1nc(-c2ccc(F)cc2)cc1C(=O)NCCc1csc(-c2ccc(F)cc2)n1,i
COc1ccc(F)cc1S(=O)(=O)N1CCC(Cn2ccnc2C(C)C)CC1,i
Cc1ccc2c(c1)N(C(=O)Cn1cc(S(=O)(=O)N3CCCCC3)ccc1=O)CCO2,i
CC(C)c1nccn1CC1CCN(C(=O)c2ccc3ncsc3c2)CC1,i
CCS(=O)(=O)c1ccc(OC)c(Nc2ncc(-c3cccc(OC)c3)o2)c1,i
O=C(Nc1cccc(N2CCCS2(=O)=O)c1)c1cccc(F)c1,i
Cc1ccc(S(=O)(=O)c2cn(CC(=O)Nc3cccc(C)c3)c3ccc(F)cc3c2=O)cc1,i
CCOC(=O)c1cccc(NC(=O)Cn2ccn3nc(-c4ccc(Cl)cc4)cc3c2=O)c1,i
Cc1nc(-c2cccs2)sc1CNC(=O)c1c[nH]c(=O)[nH]1,i
Cc1nn(-c2ccccc2)c(OC(=O)CCC2CCCC2)c1S(=O)(=O)c1ccccc1,i
Cc1cc(C(=O)N2CCCC(c3nnc(C(F)(F)F)o3)C2)no1 (configuration not stated),i
Cc1ccc2[nH]c3c(=O)n(CCC(=O)N4CCN(Cc5ccccc5)CC4)cnc3c2c1,i
COc1ccccc1-c1ccc(N2CCC(NC(=O)COc3ccc(F)cc3)CC2)nn1,i
CCn1cnc2c(-c3ccccc3)cn(CC(=O)Nc3cc(OC)cc(OC)c3)c2c1=O,i
O=C(Oc1ccc(/C=C/c2ccncc2)cc1)c1ccc(Br)o1,i
CCN1C(=O)C(CC(=O)Nc2ccc(F)cc2)SC1=NS(=O)(=O)c1ccc(C)cc1 (configuration not stated),i
Cc1cc(NC(=O)c2ccno2)n(-c2nc3c(F)cccc3s2)n1,i
COc1ccc(Br)c(C(=O)NCc2cnn3ccccc23)c1,i
# The listing continues.
SMILES,GIRK2 activ
Cc1ccc2nc(N(CCCn3ccnc3)C(=O)/C=C/c3cccs3)sc2c1,i
CC(=O)Nc1ccc(C2=NN(C(=O)c3cccs3)C(c3ccco3)C2)cc1 (configuration not stated),i
Cc1cc(C(=O)N2CCCC(c3nnc(-c4cccs4)o3)C2)c(C)o1 (configuration not stated),i
COc1ccc(C(O)CN2CCN(c3cccc(C)c3C)CC2)cc1 (configuration not stated),i
CN(C)C(=O)c1nnn(-c2ccc(Br)cc2)n1,i
O=C(NCCn1ccc(C(F)(F)F)n1)C1CC=CCC1 (configuration not stated),i

# An excerpt of these results, with values ahead of the structure.
GIRK2 activ | canonical_smiles
i | CNC(=O)CN1CCN(Cc2nc3ccc(OC)cc3[nH]2)CC1
i | CC(=O)c1cccc(NC(=O)COc2cc(C)nc(-c3ccc(C)cc3)n2)c1
i | O=C(Cn1cccc1)Nc1cc(N2CCN(Cc3ccccc3)CC2)ncn1
i | O=C(CCc1ccccc1)NCc1n[nH]c(=O)c2ccccc12
i | Cc1ccc2nc(NC(=O)CN3CCN(CC(=O)c4ccco4)CC3)sc2c1
i | COc1ccc(CC(=O)Nc2ccc(C)c(N3CCCC3=O)c2)cc1
i | COc1ccc(OCc2noc(CNC(=O)c3cc(-c4ccc(F)cc4)n[nH]3)n2)cc1
i | CCOc1ccc(S(=O)(=O)NCc2ccc(C(O)c3cccs3)s2)cc1F (configuration not stated)
i | COc1ccc(CCNC(=O)CC2CCCCN2S(=O)(=O)c2ccccc2)cc1 (configuration not stated)
i | COc1ccc(-n2c(C)cn3c4c(=O)n(CCN5CCOCC5)c(=O)n(C)c4nc23)c(OC)c1
i | CN(C)S(=O)(=O)c1ccc(C(=O)N2CCC(CSC3=NCCS3)CC2)cc1
i | O=S(=O)(NCCS(=O)(=O)N1CCc2ccccc21)c1ccc(OC(F)(F)F)cc1
i | Cc1ccc(N2C(=O)N(c3cccc(C)c3C)C3CS(=O)(=O)CC32)cc1 (configuration not stated)
i | CCOc1cccc2cc(C(=O)Nc3ccc(Br)cc3C)c(=O)oc12
i | CSc1ccc(-c2noc(CSc3nc4[nH]ncc4c(=O)n3-c3ccc(F)c(F)c3)n2)cc1
i | COC(=O)c1sc2cccc(F)c2c1S(=O)(=O)N1CCC(C(N)=O)(N2CCCCC2)CC1
i | O=C(Cc1cccs1)Nc1cc(C2CC2)nn1-c1nc(-c2ccccc2)cc(=O)[nH]1
i | COc1ccc(NC(=O)C2COCC(=O)N2Cc2cccs2)cc1Cl (configuration not stated)

# Screens as filed in PubChem BioAssay.
